B2AR ag: agonists of human beta-2 adrenergic receptor inducing internalization; P07550; Am2.2-beta2AR cells, FAP receptor internalization, flow cytometry; reference of the scale not given here; AID 504454; response, % (concentration not given with the values); 340,000 compounds, 0.43% hits;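 active = response above a set limit, near 3 SD of response in nonfluorescent compounds, cut at about 42% in these data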;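 note: stock transfer was 100 nL into about 11 µL; a reference agonist was the positive control; negative values mostly stem from fluorescent compounds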
HNF4A DNA FP: change in binding of human HNF4 alpha to DNA | P41235 | HNF4a-FITC DNA binding, fluorescence polarization, 1 h | activity change, % at 10 µM | 360,000 compounds, 0.3% hits; in the data active = activity change above about 30%, passing the limit was not always enough;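 note: controls were the assay level and a saturating level of protein; the project sought stronger binding though the title names inhibitors; some compounds called inactive have numbers as strong as hits; positive values seem to mean higher polarization but the record does not say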
ALR inh: inhibitors of human sulfhydryl oxidase ALR; P55789; purified ALR, DTT oxidation, H2O2 HRP-luminol luminescence; inhibition, % (concentration not given with the values); 290,000 compounds, 3.8% hits; AID 485317;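 active = mean and each replicate at 75% or more; inconclusive = only one of the two met; inactive = neither met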;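 note: stock transfer was 7.5 nL into about 7.5 µL; 0% = neutral wells and 100% = wells with inactivated enzyme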
LANA-H2B inh: blocks KSHV LANA binding to histone H2A/H2B | inhibition, % (test concentration not listed) | cell-free LANA-H2A/H2B peptide, fluorescence polarization | AID 2629 | 320,000 compounds, 0.6% hits | Q9QR71; in the data active = inhibition mostly above about 10%, no sharp cut-off; inactive = mostly below about 6.7%;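 note: stock transfer was 7.5 nL into about 10 µL; 0% = median of vehicle wells and 100% = median of positive control wells; one replicate is shown; the record names a cut of 25% in any replicate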
Target sequence (Q9QR71 whole entry, looked up): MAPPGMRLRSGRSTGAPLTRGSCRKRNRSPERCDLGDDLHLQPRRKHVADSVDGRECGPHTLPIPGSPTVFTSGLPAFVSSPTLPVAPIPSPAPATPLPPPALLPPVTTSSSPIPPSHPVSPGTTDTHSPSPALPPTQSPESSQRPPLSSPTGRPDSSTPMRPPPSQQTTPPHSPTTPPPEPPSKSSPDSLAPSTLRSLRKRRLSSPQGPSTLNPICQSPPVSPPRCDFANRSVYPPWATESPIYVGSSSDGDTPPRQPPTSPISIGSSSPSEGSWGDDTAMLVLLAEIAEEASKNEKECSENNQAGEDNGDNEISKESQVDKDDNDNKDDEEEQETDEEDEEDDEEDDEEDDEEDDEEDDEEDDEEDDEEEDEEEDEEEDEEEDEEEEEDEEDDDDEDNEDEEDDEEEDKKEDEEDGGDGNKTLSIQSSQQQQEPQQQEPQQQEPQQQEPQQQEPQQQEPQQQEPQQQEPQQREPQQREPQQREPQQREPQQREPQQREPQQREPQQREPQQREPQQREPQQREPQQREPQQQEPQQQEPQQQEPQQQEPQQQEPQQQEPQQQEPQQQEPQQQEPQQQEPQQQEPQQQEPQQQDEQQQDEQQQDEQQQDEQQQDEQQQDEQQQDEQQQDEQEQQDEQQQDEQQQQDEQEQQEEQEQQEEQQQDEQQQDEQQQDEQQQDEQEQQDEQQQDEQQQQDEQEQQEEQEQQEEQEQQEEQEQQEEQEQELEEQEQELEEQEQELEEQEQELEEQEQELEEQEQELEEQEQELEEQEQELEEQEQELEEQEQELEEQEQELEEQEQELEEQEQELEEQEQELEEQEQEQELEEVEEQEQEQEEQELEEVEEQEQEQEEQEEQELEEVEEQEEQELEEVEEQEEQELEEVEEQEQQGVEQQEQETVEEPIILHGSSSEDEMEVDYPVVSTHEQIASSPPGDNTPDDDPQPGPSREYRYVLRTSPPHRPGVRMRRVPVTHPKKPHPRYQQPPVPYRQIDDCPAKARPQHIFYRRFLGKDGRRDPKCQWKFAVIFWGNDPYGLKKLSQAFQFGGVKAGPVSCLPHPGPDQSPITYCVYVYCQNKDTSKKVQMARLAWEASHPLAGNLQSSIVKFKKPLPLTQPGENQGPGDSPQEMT
Calb FLC: C. albicans growth modulation with fluconazole. C. albicans CaCi-2 (fluconazole-resistant clinical isolate) + fluconazole, Alamar Blue growth, 48 h. growth inhibition, % (test concentration not listed). 300,000 compounds, 0.57% hits. AID 1979;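 active = most replicates above 75%; inconclusive = exactly half above 75%; inactive = most below 75%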;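 note: all wells also contain fluconazole at 8 µg/ml as a sub-toxic cotreatment; 0% = median of DMSO wells and 100% = median of geldanamycin control wells; wells of about 8 µL received 7.5 nL stock; the first replicate is given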
Vif TR-FRET: HIV-1 Vif–A3G interaction blockers – biochemical, TR-FRET, GST-Vif 1-94, biotin-A3G peptide, dose response retest, primary screen (AID 1117319). TR-FRET GST-Vif / biotin-A3G peptide binding; higher % means a stronger effect; test concentration not given here; strong numbers were not always called active. one-dose inhibition, %; IC50 in µM for titrated hits. 260,000 compounds, 0.57% hits;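 active = above the screen mean plus three standard deviations and confirmed in dose response; inconclusive = results disagree or hit not tested in dose response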;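 note: Vif residues 1-94 fused to GST binding biotinylated APOBEC3G peptide 110-148; 0% = full assay without inhibitor and 100% = GST in place of GST-Vif; retest series ran down from 100 µM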
RanGTP-Impb inh: inhibitors of RanGTP-importin-beta interaction, primary screen, biochemical, FRET, CFP-Ran, YFP-importin-beta, homogeneous; cell-free CFP-Ran/YFP-importin-beta FRET ratio; inhibition, % (no concentration beside the values); 300,000 compounds, 1.1% hits; AID 2216;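 active = most replicates above 15%; inconclusive = exactly half above 15%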;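 note: 0% = DMSO wells and 100% = Ran loaded with GDP instead of GTP; wells of about 40 µL received 100 nL stock; the first replicate is given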
Starred values were filed as active, the others as inactive; u = inconclusive; x = no result given.

SMILES | B2AR ag | HNF4A DNA FP | ALR inh | LANA-H2B inh | Calb FLC | Vif TR-FRET | RanGTP-Impb inh
C=CC(=O)N1C/C(=C/c2ccccc2)C(=O)/C(=C\c2ccccc2)C1 | 29 | -0.1 | x | x | x | 6% | x
CC(C)(C)c1ccc(/C=N/NC(=O)C2CCCC2)cc1 | 2 | -1.8 | -23 | 2.3 | -5 | 5% | x
CN1CCN(C(=O)/C=C\c2ccc(Cl)cc2)CC1 | -15 | -0.1 | 1 | 1.9 | -6 | x | 8.0
Cc1cc(C)cc(-n2ncc3c2CCCC3NC(=O)c2ccccc2N2CCOCC2)c1 (centres undefined) | 6 | 1.9 | 6 | 1.5 | -2 | x | -2.9
CCCn1nc2cc(C(=O)NCc3ccc(C)cc3)ccc2c1OCC | -5 | 0.3 | -1 | 6.2 | 8 | 0% | 0.4
COc1cccc(CNC(=O)COC(=O)C2CC3CCCC(C2)C3=O)c1 (centres undefined) | -4 | 3.1 | -1 | -4.6 | -2 | -4% | 1.4
CC(C)OP(=O)(Nc1cccc2ccccc12)OC(C)C | -2 | -0.5 | -5 | 4.6 | -12 | 9% | -1.7
COc1ccc(/C=N/NC(=O)c2ccn[nH]2)cc1Cn1cc([N+](=O)[O-])cn1 | -2 | 5.5 | 4 | 5.3 | 13 | -7% | 0.5
O=[N+]([O-])c1ccc(-n2cccn2)c(-c2nn[nH]n2)c1 | 9 | -2.3 | -8 | -2.6 | 15 | 9% | -2.0
COC(=O)c1cccc(NC(=O)CCCN2C(=O)NC3(CCCC3)C2=O)c1 | 8 | -3.7 | x | x | x | -7% | x
CN(C)S(=O)(=O)c1cccc(-c2nn(-c3ccccc3)cc2/C=C(/C#N)C(=O)NCc2ccco2)c1 | -2 | 1.1 | 1 | 0.0 | 10 | x | -0.9
CC1CCCC(C)N1C(=O)CN1C(=O)c2ccccc2S1(=O)=O (centres undefined) | 0 | 1.7 | x | x | x | -8% | x
O=C(NNC(=O)C1CC=CCC1C(=O)O)c1ccc(Cl)cc1 (centres undefined) | -4 | -1.5 | 1 | -2.0 | -9 | 1% | 1.2
Cc1ccc(C)c(OCc2cc(C(=O)NC3CCN(Cc4ccccc4)CC3)no2)c1 | 11 | 8.0 | -24 | 14 | 7 | x | -1.6
O=C(NCc1ccc2c(c1)OCO2)C1CC(=O)N(C2CCCCCCC2)C1 (centres undefined) | -8 | 0.5 | -9 | 3.1 | -40 | u | 5.0
CCOC(=O)Nc1sc2c(c1C#N)CCC(C)C2 (centres undefined) | -6 | -2.1 | 3 | 0.1 | u | u | 1.2
CC(=O)c1ccc(OCC(C)C)c(CN2CCCCC2)c1 | 6 | 2.4 | -11 | -0.9 | -3 | 22% | u
CCc1cc(=O)oc2cc(OC3CCCCC3=O)ccc12 (centres undefined) | -4 | -1.7 | -2 | 4.9 | 4 | -4% | -2.5
CC(C)(C)NC(=O)CN(C(=O)c1ccc(Cl)nc1)c1cccc2ccccc12 | 2 | 1.4 | -9 | 4.0 | 25 | 4% | 2.4
COc1ccc(Nc2nc(N3CCN(S(=O)(=O)N(C)C)CC3)nc3ccccc23)cc1 | 12 | 0.9 | 9 | -3.3 | 18 | 2% | 1.4

Some values from the results shown.
HNF4A DNA FP with `O=C(NCc1ccc2c(c1)OCO2)C1CC(=O)N(C2CCCCCCC2)C1` (centres undefined) stands at 0.5
ALR inh with `O=C(NNC(=O)C1CC=CCC1C(=O)O)c1ccc(Cl)cc1` (centres undefined) stands at 1
Calb FLC with `COc1ccc(Nc2nc(N3CCN(S(=O)(=O)N(C)C)CC3)nc3ccccc23)cc1` stands at 18

(continued)
SMILES | B2AR ag | HNF4A DNA FP | ALR inh | LANA-H2B inh | Calb FLC | Vif TR-FRET | RanGTP-Impb inh
CCOC(=O)c1cnc(SCC(=O)Nc2nc(C)c(C)s2)nc1N | -25 | 2.8 | 51 | 2.6 | 6 | 2% | 3.9
O=C(Nc1c(Cl)ccc2nsnc12)c1ccc([N+](=O)[O-])o1 | 5 | -2.9 | -17 | -5.5 | -2 | x | u
Cn1c(=O)c2c(nc(Cl)n2CC(=O)N2CCCCC2)n(C)c1=O | 1 | -2.9 | -23 | -0.9 | -8 | -7% | -1.9
CC(C)(C)c1ccc(/C=N/NC(=O)Cc2c[nH]c3ccccc23)cc1 | -1 | 0.8 | -3 | -1.8 | 3 | -4% | 6.2
CN(C)NC(=O)C(NC(=O)c1ccccc1)C12CC3CC(CC(C3)C1)C2 (centres undefined) | 8 | -1.0 | -2 | -9.9 | -35 | x | -1.0
Cc1ccc(CCN2CC(C(=O)NCc3cccnc3)CC2=O)cc1 (centres undefined) | 8 | 0.1 | x | x | -5 | x | -0.3
CCc1ccc(N(C(=O)CCC(=O)Nc2cc(C)on2)C(C(=O)NC2CCCC2)c2ccco2)cc1 (centres undefined) | -9 | -3.7 | 1 | -0.6 | 3 | x | 3.9
O=C(CCC1CCCN(Cc2cccc(Cl)c2)C1)NCc1ccccc1F (centres undefined) | -16 | 3.3 | -1 | 7.2 | -4 | 3% | -3.2
Cc1cc(C)cc(NC(=S)N(CCN2CCCCC2)Cc2ccco2)c1 | 8 | 0.5 | x | 2.3 | -3 | 1% | 0.3
COc1ccc(/C=C/C(=O)NC(=S)Nc2ccc(S(=O)(=O)Nc3nccnc3OC)cc2)cc1 | 3 | -4.8 | x | x | -11 | -3% | -6.7
O=C(Cc1csc(-c2ccccc2)n1)NCc1ccco1 | -5 | 1.9 | x | -0.9 | -3 | -1% | 4.0
COc1ccc(N2CC(C(=O)NCc3ccccc3)CC2=O)cc1 (centres undefined) | 3 | -2.0 | 0 | -0.9 | -7 | 24% | -0.2
O=C(O)CC1S/C(=N/N=C/c2ccc(-c3ccccc3[N+](=O)[O-])o2)NC1=O (centres undefined) | -2 | -8.9 | 98* | -1.4 | 0 | u | 0.9
Cc1ccc(S(=O)(=O)N2CCCC2C(=O)Nn2cnnc2)cc1 (centres undefined) | 9 | -0.4 | -10 | -2.7 | 3 | 3% | 0.3
O=C(Nc1ccc(-c2ccco2)cc1)C1CCCN(Cc2ccc(CO)o2)C1 (centres undefined) | 6 | -2.6 | -13 | 5.2 | 4 | 3% | 1.6
COC(=O)Nc1nnc(SCc2ccc(C)cc2)s1 | 6 | -0.5 | 2 | 1.4 | 6 | -2% | 0.0
CCOC(=O)c1sc(NC(=O)CN2C(=O)NC3(CCC(C)CC3)C2=O)c(C(=O)OCC)c1C (centres undefined) | 0 | -1.2 | -6 | -7.8 | x | 17% | x
Cc1ccc(N2CC(C(=O)N3CCc4ccccc43)CC2=O)cc1 (centres undefined) | -4 | 1.2 | -3 | 2.7 | 0 | 0% | 0.1
COc1cc(S(=O)(=O)N2CCOCC2)cc(C(=O)c2nccn2C)c1OC | -3 | -0.5 | 36 | -1.7 | 13 | 14% | 4.8
COc1ccc([N+](=O)[O-])cc1NC(=O)c1cncc(Br)c1 | -4 | 0.1 | -10 | -0.9 | 1 | 8% | -2.4
O=C(COc1ccc2c3c(c(=O)oc2c1)CCCC3)NCCN1CCOCC1 | -7 | 6.0 | -4 | -0.4 | -4 | x | -0.2
Cn1cnnc1SC(C(=O)Nc1cccc(C(F)(F)F)c1)c1ccccc1 (centres undefined) | -6 | -1.2 | 6 | 6.5 | -4 | -1% | 1.1
Cc1ccc(-c2nn(CCC(=O)NCC3CCCO3)c(=O)c3ccccc23)cc1 (centres undefined) | -6 | -4.7 | -3 | -4.0 | -9 | 0% | -1.2
CCCn1c(=O)c2c(c3ccccc31)OCC(=O)N2 | 0 | 0.5 | -2 | -11 | 6 | -6% | 7.4
Cc1ccc2nc3sc(C(=O)Nc4c(C)[nH]c(=O)[nH]c4=O)c(N)c3cc2c1 | 4 | 2.4 | -1 | -0.2 | -1 | 11% | u
COc1ccccc1CN(C)C(=O)CN1C(=O)c2ccccc2C1=O | 4 | -0.2 | 0 | -3.2 | 1 | -13% | 6.6
CCCCOc1ncnc2c1[nH]c1ccc(OC)cc12 | x | x | -16 | 0.3 | 24 | 3% | 0.3
Cc1ccc(S(=O)(=O)N2CCCC2)cc1C(=O)Nc1ccc(-n2cnnn2)cc1 | -4 | -4.6 | -3 | 6.0 | x | -12% | x
CC(=O)c1sc2nc(-c3cccs3)ccc2c1N | -12 | 6.1 | 5 | -2.4 | 3 | 17% | -38
Cc1ccc(C)c(OCC(=O)Nc2ccc3c(c2)OCO3)c1C | -2 | -1.3 | x | -2.5 | 1 | 1% | 6.4
COc1ccc(C=O)cc1COc1ccc(Cl)cc1[N+](=O)[O-] | -17 | -2.6 | -12 | 0.4 | 3 | 11% | 3.5
Cc1ccc(NC(=O)c2ccccc2OCC(=O)Nc2ccccc2F)cc1S(=O)(=O)N(C)C | 25 | 4.3 | -6 | -0.1 | x | 0% | x
O=C(Cc1ccccc1)N1CCC(c2nc3ccccc3[nH]2)CC1 | -7 | -0.4 | -15 | 3.5 | -12 | 1% | 1.2
CN1CCN(S(=O)(=O)c2cccc(C(=O)Nc3nccs3)c2)CC1 | -4 | 0.4 | -11 | -4.7 | 0 | 29% | u
c1ccc(Sc2ncccn2)nc1 | 6 | -4.2 | -6 | 0.7 | 6 | x | -1.0
CCSC1=C(C#N)C(=O)n2c1cc1c2CCCC1 | -17 | 0.9 | -14 | -2.6 | u | -1% | 0.8
CN(Cc1ccccc1)C(=O)c1cccc(NC(=O)c2ccco2)c1 | -15 | 1.0 | -1 | -2.0 | -1 | -6% | 1.4
CC(=O)Nc1ccc(S(=O)(=O)Nc2ccccc2C(=O)N2CCCC2)cc1 | -1 | 14 | 1 | 3.4 | 14 | -4% | 6.3
O=C(Cn1c(=O)oc2cccnc21)Nc1ccccc1Oc1ccc(Cl)cc1Cl | x | x | 4 | -1.7 | 1 | -16% | 2.6
COc1ccc(CN2CCN(C(=O)c3cc(-c4cccnc4)nc4ccc(Cl)cc34)CC2)c(OC)c1OC | 10 | 1.0 | 1 | 0.6 | -4 | -9% | 3.5

ALR inh, what is marked active above
canonical_smiles	B2AR ag	HNF4A DNA FP	ALR inh	LANA-H2B inh	Vif TR-FRET	RanGTP-Impb inh
O=C(O)CC1S/C(=N/N=C/c2ccc(-c3ccccc3[N+](=O)[O-])o2)NC1=O (centres undefined)	-2	-8.9	98*	-1.4	u	0.9

(more compounds)
SMILES | B2AR ag | HNF4A DNA FP | ALR inh | LANA-H2B inh | Calb FLC | Vif TR-FRET | RanGTP-Impb inh
O=C(O/N=C1\CCCc2ccccc21)c1cccs1 | 5 | 1.9 | -7 | -0.5 | 7 | 14% | -2.8
S=c1[nH]nc(-c2ccccn2)n1/N=C/c1cccs1 | -7 | -1.2 | 4 | 7.9 | 5 | -2% | 1.8
CCOc1nc(Nc2ccccc2F)nc(OCC)n1 | -5 | -1.2 | -7 | 3.9 | -13 | 0% | -2.8
COc1ccc2c(C)cc(SCC(=O)Nc3ccc(Cl)cn3)nc2c1 | 0 | 7.0 | 1 | x | 0 | -7% | -1.9
COc1ccc(/C=N/N2CCN(c3ccccc3OC)CC2)cc1Br | 6 | -1.2 | -9 | 0.4 | -5 | x | 0.1

In the list so far, these have a COOH group:
SMILES | B2AR ag | HNF4A DNA FP | ALR inh | LANA-H2B inh | Calb FLC | Vif TR-FRET | RanGTP-Impb inh
O=C(NNC(=O)C1CC=CCC1C(=O)O)c1ccc(Cl)cc1 (centres undefined) | -4 | -1.5 | 1 | -2.0 | -9 | 1% | 1.2
O=C(O)CC1S/C(=N/N=C/c2ccc(-c3ccccc3[N+](=O)[O-])o2)NC1=O (centres undefined) | -2 | -8.9 | 98* | -1.4 | 0 | u | 0.9

Compound activity (PubChem BioAssay)
